Env fusion inh: inhibitors of HIV Env-mediated cell fusion | HeLa-JRFL Env/CEM21 cell fusion, luciferase | inhibition, % at 12.3 µM | 1.1% of 360,000 active;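 active = mean replicate inhibition score of at least 50 and every replicate individually at or above 50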;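 also: 0% = plate neutral controls and 100% = maraviroc near 300 nM; one replicate is shown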
Yeast UUG start: alters start codon recognition fidelity in yeast; S. cerevisiae UUG-firefly luciferase reporter, luminescence/redox ratio; activity score, % at 18.7 µM; 0.13% of 350,000 active;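 active = replicate mean at a twofold rise or more, about +100% in these data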;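 also: firefly luciferase made from a UUG start codon reports start codon fidelity; reporter light over untreated wells divided by growth signal over untreated wells; some hits fall short of that in this replicate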
Active calls of the source: *; [ ] = another dose, or the depositor's remark. This is a subset. The share of hits here may be higher or lower than overall.

Env fusion inh,Yeast UUG start,Structure
-12[16.7 µM],11,Cc1noc(C)c1NC(=O)N(C)C[C@H]1OCCCC[C@@H](C)Oc2ccc(NS(=O)(=O)c3ccc(F)cc3)cc2C(=O)N([C@@H](C)CO)C[C@@H]1C
-23[16.7 µM],-7,COc1ccc(S(=O)(=O)N[C@H]2CC[C@@H](CC(=O)N3CCc4ccccc4C3)O[C@@H]2CO)cc1
-36[16.7 µM],10,C[C@H](CO)N1C[C@H](C)[C@H](CN(C)Cc2ccc3c(c2)OCO3)Oc2ccc(NC(=O)C3CCCCC3)cc2CC1=O
10[16.7 µM],12,C[C@H]1CN([C@@H](C)CO)S(=O)(=O)c2ccc(C#Cc3cccc(F)c3)cc2O[C@H]1CN(C)S(=O)(=O)c1cn(C)cn1
22[16.7 µM],16,Cc1ccc(S(=O)(=O)Nc2ccc3c(c2)C(=O)N([C@@H](C)CO)C[C@@H](C)[C@@H](CN(C)Cc2ccc(C(=O)O)cc2)OCCCC[C@H](C)O3)cc1
-5[16.7 µM],39,CC(C)NC(=O)N(C)C[C@@H]1Oc2c(NS(=O)(=O)c3ccc(Cl)cc3)cccc2C(=O)N([C@H](C)CO)C[C@@H]1C
-3[16.7 µM],7,Cc1ccc(S(=O)(=O)Nc2cccc3c2O[C@@H](CN(C)S(=O)(=O)c2cn(C)cn2)[C@H](C)CN([C@@H](C)CO)C3=O)cc1
6[16.7 µM],10,Cc1noc(C)c1NC(=O)N[C@@H]1CC[C@H](CCNC(=O)C2CCC2)O[C@@H]1CO
-15[16.7 µM],19,C[C@@H]1CCCCO[C@H](CN(C)C(=O)C2CCCCC2)[C@@H](C)CN([C@@H](C)CO)C(=O)c2cc(NS(C)(=O)=O)ccc2O1
13[16.7 µM],8,CO[C@H]1CN(C)C(=O)c2ccc(NS(=O)(=O)c3ccccc3)cc2OC[C@H](C)N(Cc2nccs2)C[C@H]1C
27[16.7 µM],6,Cc1ccc(S(=O)(=O)Nc2ccc3c(c2)CC(=O)N([C@@H](C)CO)C[C@H](C)[C@H](CN(C)S(=O)(=O)c2ccc(C)cc2)O3)cc1
7[16.7 µM],-5,COc1ccc(S(=O)(=O)Nc2ccc3c(c2)C(=O)N([C@@H](C)CO)C[C@H](C)[C@H](CN(C)S(=O)(=O)c2ccc(Cl)cc2)OCCCC[C@H](C)O3)cc1
-8[16.7 µM],18,CC(C)C(=O)Nc1ccc2c(c1)C(=O)N(C)[C@H]1CC[C@H](CC(=O)NCc3ccc(F)cc3)O[C@H]1CO2
-9[16.7 µM],-2,C[C@H]1CN([C@@H](C)CO)C(=O)c2cc(-c3ccccc3F)cnc2O[C@H]1CN(C)C(=O)NC1CCCCC1
-2[16.7 µM],-8,CCCC(=O)Nc1ccc2c(c1)C(=O)N(C)[C@H]1CC[C@H](CC(=O)NCCc3ccncc3)O[C@@H]1CO2
10[16.7 µM],16,Cc1noc(C)c1S(=O)(=O)Nc1ccc2c(c1)CC(=O)N([C@@H](C)CO)C[C@H](C)[C@H](CN(C)C(=O)Nc1ccc3c(c1)OCO3)O2
16[16.7 µM],-4,C[C@H](CO)N1C[C@H](C)[C@H](CN(C)S(=O)(=O)c2ccc(F)cc2)Oc2ccc(NC(=O)Nc3ccccc3)cc2C1=O
-9[16.7 µM],23,CCCC#Cc1ccc2c(c1)O[C@H](CN(C)C(C)=O)[C@@H](C)CN([C@@H](C)CO)S2(=O)=O
-4[16.7 µM],-10,C[C@H]1CN([C@@H](C)CO)C(=O)Cc2cc(NS(C)(=O)=O)ccc2O[C@@H]1CN(C)S(C)(=O)=O
9[16.7 µM],-2,C[C@H]1CN([C@@H](C)CO)C(=O)c2cc(C#CCN(C)C)cnc2O[C@H]1CN(C)Cc1ccc(-c2ccccc2)cc1
-2[16.7 µM],12,CC(C)NC(=O)Nc1ccc2c(c1)C(=O)N([C@@H](C)CO)C[C@@H](C)[C@H](CN(C)C(=O)C1CCCCC1)OCCCC[C@@H](C)O2
-13[16.7 µM],-6,C[C@@H]1CN([C@@H](C)CO)S(=O)(=O)c2ccc(-c3ccncc3)cc2O[C@H]1CN(C)C(=O)CC1CC1
-8[16.7 µM],-7,C[C@@H]1CCCCO[C@H](CN(C)Cc2ccc3c(c2)OCO3)[C@H](C)CN([C@H](C)CO)C(=O)c2cc(NC(=O)Nc3ccc4c(c3)OCO4)ccc2O1
0[16.7 µM],-14,C[C@@H]1CN([C@H](C)CO)C(=O)Cc2cc(NC(=O)Cc3cn(C)c4ccccc34)ccc2O[C@H]1CN(C)S(=O)(=O)c1ccccc1
15[16.7 µM],-10,CC(=O)N(C)C[C@@H]1Oc2ncc(-c3ccccc3F)cc2C(=O)N([C@@H](C)CO)C[C@@H]1C
14[16.7 µM],13,CNC[C@@H]1Oc2ncc(-c3ccccc3C)cc2C(=O)N([C@H](C)CO)C[C@H]1C
-5[16.7 µM],-16,COCCOC(=O)N1C(=O)[C@@]2(c3cc(C#CCCO)ccc31)[C@H](c1ccc(O)cc1)N1[C@H](c3ccccc3)[C@H](c3ccccc3)OC(=O)[C@H]1[C@@H]2C(N)=O
0[16.7 µM],10,C[C@H](CO)N1C[C@H](C)[C@H](CN(C)C(=O)Nc2ccc3c(c2)OCO3)OCCCC[C@H](C)Oc2ccc(NC(=O)CCC(F)(F)F)cc2C1=O
26[16.7 µM],3,C[C@H](CO)N1C[C@H](C)[C@H](CN(C)C(=O)Cc2ccccc2)Oc2ncc(C#CC3(O)CCCC3)cc2C1=O
-8[16.7 µM],5,O=C(C[C@H]1CC[C@@H](NC(=O)C2CCC2)[C@@H](CO)O1)NC1CCCCC1

A portion taken from the entries so far:
Env fusion inh,Yeast UUG start,Structure
-36[16.7 µM],10,C[C@H](CO)N1C[C@H](C)[C@H](CN(C)Cc2ccc3c(c2)OCO3)Oc2ccc(NC(=O)C3CCCCC3)cc2CC1=O
10[16.7 µM],12,C[C@H]1CN([C@@H](C)CO)S(=O)(=O)c2ccc(C#Cc3cccc(F)c3)cc2O[C@H]1CN(C)S(=O)(=O)c1cn(C)cn1
22[16.7 µM],16,Cc1ccc(S(=O)(=O)Nc2ccc3c(c2)C(=O)N([C@@H](C)CO)C[C@@H](C)[C@@H](CN(C)Cc2ccc(C(=O)O)cc2)OCCCC[C@H](C)O3)cc1
-5[16.7 µM],39,CC(C)NC(=O)N(C)C[C@@H]1Oc2c(NS(=O)(=O)c3ccc(Cl)cc3)cccc2C(=O)N([C@H](C)CO)C[C@@H]1C
-3[16.7 µM],7,Cc1ccc(S(=O)(=O)Nc2cccc3c2O[C@@H](CN(C)S(=O)(=O)c2cn(C)cn2)[C@H](C)CN([C@@H](C)CO)C3=O)cc1

Back to the main list, repeating the 2 entries before the break.
Env fusion inh,Yeast UUG start,Structure
26[16.7 µM],3,C[C@H](CO)N1C[C@H](C)[C@H](CN(C)C(=O)Cc2ccccc2)Oc2ncc(C#CC3(O)CCCC3)cc2C1=O
-8[16.7 µM],5,O=C(C[C@H]1CC[C@@H](NC(=O)C2CCC2)[C@@H](CO)O1)NC1CCCCC1
-13[16.7 µM],14,C[C@H](CO)N1C[C@H](C)[C@@H](CN(C)C(=O)c2ccccc2)Oc2ncc(C3=CCCCC3)cc2C1=O
16[16.7 µM],-17,CCC(=O)Nc1ccc2c(c1)C(=O)N(C)C[C@H](OC)[C@@H](C)CN(C(=O)c1ccncc1)[C@@H](C)CO2
67*[16.7 µM],-16,CS(=O)(=O)Nc1ccc2c(c1)[C@H]1C[C@@H](CC(=O)NCCN3CCCCC3)O[C@@H](CO)[C@H]1O2
23[16.7 µM],7,COCC#Cc1ccc2c(c1)O[C@@H](CN(C)Cc1ccc(F)cc1)[C@H](C)CN([C@H](C)CO)S2(=O)=O
1[16.7 µM],1,CNC[C@H]1Oc2ccc(N(C)C)cc2CC(=O)N([C@@H](C)CO)C[C@H]1C
3[16.7 µM],-1,COc1ccc(-c2ccc([C@H]3[C@H](C#N)N(C(=O)C4CC4)[C@H]3CO)cc2)cc1
-15[16.7 µM],5,CCNC(=O)C[C@H]1CC[C@@H]2[C@@H](COc3ccc(NC(=O)c4ccccc4Cl)cc3C(=O)N2C)O1
-14[16.7 µM],-2,O=C(C[C@@H]1CC[C@@H](NS(=O)(=O)c2ccc(F)cc2)[C@@H](CO)O1)N1CCc2ccccc2C1
-1[16.7 µM],-3,Cc1noc(C)c1NC(=O)Nc1ccc2c(c1)CC(=O)N([C@H](C)CO)C[C@H](C)[C@@H](CN(C)Cc1ccc(Oc3ccccc3)cc1)O2
-12[16.7 µM],1,C[C@@H]1CCCCO[C@H](CN(C)C(=O)Nc2ccc(F)cc2)[C@@H](C)CN([C@H](C)CO)C(=O)c2cc(NS(C)(=O)=O)ccc2O1
-23[16.7 µM],17,N#C[C@H]1[C@@H](c2ccc(C#Cc3ccccc3F)cc2)[C@@H](CO)N1C(=O)C1CCC1
-1[16.7 µM],15,CN1C(=O)c2cc(NC(=O)c3ccc(F)cc3)ccc2OC[C@H]2O[C@H](CC(=O)N3CCOCC3)CC[C@@H]21
-21[16.7 µM],8,CCC(=O)N(C)C[C@@H]1Oc2cc(C#CCOC)ccc2S(=O)(=O)N([C@@H](C)CO)C[C@@H]1C
12[16.7 µM],-5,C[C@@H]1CN([C@@H](C)CO)C(=O)Cc2cc(NC(=O)c3ccncc3)ccc2O[C@@H]1CN(C)CC1CC1
2[16.7 µM],-4,C[C@@H]1CN([C@@H](C)CO)C(=O)c2cc(NS(=O)(=O)c3ccc(Cl)cc3)ccc2O[C@@H](C)CCCCO[C@@H]1CN(C)C(=O)Nc1ccccc1
4[16.7 µM],8,COc1ccc(NC(=O)Nc2cccc3c2O[C@H](CN(C)C(=O)NC2CCCCC2)[C@@H](C)CN([C@@H](C)CO)C3=O)cc1
-2[16.7 µM],-11,CCCNC(=O)N1C[C@@H](O)COC[C@@H]2O[C@@H](CC(=O)NCCCN3CCOCC3)CC[C@H]21
17[16.7 µM],-1,C[C@H]1CN([C@@H](C)CO)S(=O)(=O)c2ccc(-c3ccccc3)cc2O[C@H]1CN(C)C(=O)C1CCCCC1
28[16.7 µM],-12,C[C@@H]1CN([C@@H](C)CO)C(=O)Cc2cc(NC(=O)NC3CCCCC3)ccc2O[C@H]1CN(C)S(=O)(=O)c1ccc(Cl)cc1
-3[16.7 µM],26,C[C@H]1CN([C@@H](C)CO)S(=O)(=O)c2ccc(C#CCN(C)C)cc2O[C@H]1CN(C)C
5[16.7 µM],4,CC(=O)Nc1ccc2c(c1)C(=O)N(C)[C@@H]1CC[C@H](CC(=O)NCc3ccc4c(c3)OCO4)O[C@@H]1CO2
-17[16.7 µM],-7,C[C@@H]1CN([C@H](C)CO)C(=O)c2cc(NC(=O)C3CCCCC3)ccc2O[C@H]1CN(C)S(=O)(=O)c1cn(C)cn1
3[16.7 µM],-7,CN(C)CCCNC(=O)C[C@@H]1CC[C@@H](NC(=O)c2ccccc2F)[C@H](CO)O1
-16[16.7 µM],16,C[C@@H]1CN([C@H](C)CO)C(=O)c2cccc(NC(=O)C3CC3)c2O[C@@H]1CN(C)S(=O)(=O)c1cccs1
-10[16.7 µM],5,C[C@H]1CN([C@@H](C)CO)S(=O)(=O)c2ccc(-c3ccncc3)cc2O[C@H]1CN(C)C(=O)CN(C)C
3[16.7 µM],0,CNC(=O)C[C@@H]1CC[C@@H]2[C@H](COc3ccc(NC(=O)NC4CCCC4)cc3C(=O)N2C)O1
26[16.7 µM],12,C[C@H](CO)N1C[C@H](C)[C@@H](CN(C)Cc2ccc(C(F)(F)F)cc2)Oc2ccc(NC(=O)C3CCCCC3)cc2CC1=O
10[16.7 µM],-6,CC(=O)N(C)C[C@H]1Oc2cc(C#CCN(C)C)ccc2S(=O)(=O)N([C@H](C)CO)C[C@H]1C
-16[16.7 µM],11,CC(C)CC#Cc1cnc2c(c1)C(=O)N([C@H](C)CO)C[C@@H](C)[C@@H](CN(C)S(=O)(=O)c1ccccc1)O2
-5[16.7 µM],-2,C[C@H]1CN([C@@H](C)CO)C(=O)c2cc(-c3cncnc3)cnc2O[C@@H]1CN(C)C(=O)Cc1ccccc1

Env fusion inh: what is marked active above.
Env fusion inh,Yeast UUG start,Structure
67*[16.7 µM],-16,CS(=O)(=O)Nc1ccc2c(c1)[C@H]1C[C@@H](CC(=O)NCCN3CCCCC3)O[C@@H](CO)[C@H]1O2

(list continues)
Env fusion inh,Yeast UUG start,Structure
-10[16.7 µM],-7,COCC(=O)Nc1ccc2c(c1)[C@@H]1C[C@@H](CC(=O)NCc3ccccc3)O[C@@H](CO)[C@@H]1O2
-2[16.7 µM],16,Cc1noc(C)c1NC(=O)Nc1ccc2c(c1)C(=O)N([C@H](C)CO)C[C@@H](C)[C@@H](CN(C)C(=O)C1CCCCC1)OCCCC[C@@H](C)O2
2[16.7 µM],-1,Cc1ccc(S(=O)(=O)N[C@@H]2CC[C@H](CCn3cc(C4(O)CCCC4)nn3)O[C@H]2CO)cc1
4[16.7 µM],-2,CC(C)C(=O)Nc1ccc2c(c1)C(=O)N(C)[C@H]1CC[C@H](CC(=O)NCC3CC3)O[C@H]1CO2
14[16.7 µM],-4,C[C@@H]1CN([C@H](C)CO)C(=O)c2cc(NC(=O)CCCN(C)C)ccc2O[C@@H]1CN(C)Cc1ccc(C(F)(F)F)cc1
-46[16.7 µM],-1,COc1ccc(CN(C)C[C@@H]2Oc3c(NC(=O)c4nc5ccccc5s4)cccc3C(=O)N([C@@H](C)CO)C[C@H]2C)cc1
31[16.7 µM],-13,N#C[C@@H]1[C@@H](c2ccc(C#Cc3ccccc3F)cc2)[C@@H](CO)N1C(=O)C1CCCCC1

Individual results from the entries so far.
Yeast UUG start with `COc1ccc(CN(C)C[C@@H]2Oc3c(NC(=O)c4nc5ccccc5s4)cccc3C(=O)N([C@@H](C)CO)C[C@H]2C)cc1` = -1
Env fusion inh with `N#C[C@@H]1[C@@H](c2ccc(C#Cc3ccccc3F)cc2)[C@@H](CO)N1C(=O)C1CCCCC1` = 31[16.7 µM]
Env fusion inh with `CC(C)C(=O)Nc1ccc2c(c1)C(=O)N(C)[C@H]1CC[C@H](CC(=O)NCC3CC3)O[C@H]1CO2` = 4[16.7 µM]
